# Screening results from PubChem.
# Vaccinia Venus = qHTS for Stage-Specific Inhibitors of Vaccinia Orthopoxvirus: Venus Reporter Primary qHTS; AID 720580, 2013; Vaccinia virus Venus reporter expression, fluorescence; 0.46% of 330,000 active; Potency, µM (top dose mostly 36.5 µM), without a hit: top-dose activity change, negative = inhibition, actives largely listed as inhibitors; active means well fitted inhibition curve with a large enough effect; inconclusive means small, poorly fitted or top-dose-only effect; inactive means no such curve, though single readings can be large or run the other way; tested in A549 cells; also: nearly all actives have a fitted effect of over 30% in size; inactives centre near -10
# Vaccinia mCherry = qHTS for Stage-Specific Inhibitors of Vaccinia Orthopoxvirus: mCherry Reporter Primary qHTS; Potency, µM (top dose mostly 36.5 µM), inactives show top-dose activity change, negative = inhibition, actives largely listed as inhibitors; Vaccinia virus mCherry reporter infection, fluorescence; about a quarter of the inactives have no number; 0.63% of 310,000 active; active = well fitted inhibition curve with a large enough effect; inconclusive = small, poorly fitted or top-dose-only effect; inactive = no such curve, though single readings can be large or run the other way; tested in A549 cells; also: nearly all actives have a fitted effect of over 35% in size; inactives centre near -10
# Active calls of the source: *; i = inactive; ? = inconclusive; · = no result given; & = joins results of further samples; [ ] = remark or other dose. % is scaled to controls: 0 for no effect and ±100 for the full control effect; potency is read from the fitted curve at half-maximal effect.
# Start of the listing, in advance (3 entries):
SMILES,Vaccinia Venus,Vaccinia mCherry
CCOC(=O)c1cnc(-c2ccccc2)nc1Oc1ccc(Cl)cc1,1%,·
CCOC(=O)N1CCN(C(=O)CSc2ccc(-c3ccncc3)nn2)CC1,-4%,?
Cc1ccc(NCc2nnc(SCC(=O)Nc3ncc(C)s3)n2Cc2ccco2)c(C)c1,-24%,-26%

# The list itself, repeating the preview:
SMILES,Vaccinia Venus,Vaccinia mCherry
CCOC(=O)c1cnc(-c2ccccc2)nc1Oc1ccc(Cl)cc1,1%,·
CCOC(=O)N1CCN(C(=O)CSc2ccc(-c3ccncc3)nn2)CC1,-4%,?
Cc1ccc(NCc2nnc(SCC(=O)Nc3ncc(C)s3)n2Cc2ccco2)c(C)c1,-24%,-26%
CC(C)c1ccc(S(=O)(=O)c2nnn3c2nc(N2CCN(C)CC2)c2sccc23)cc1,-26%,?
Cc1c([N+](=O)[O-])c(N)nn1C,-11%,-18%
CC(=O)NC(c1ccc(F)c(F)c1)c1nc(-c2cccc(C(C)C)c2)cs1 (centres undefined),0%,-7%
CSc1ccccc1C(=O)NCc1ccc(C)cc1,-19%,i
Cc1ccc2nc(C3CCN(S(=O)(=O)c4ccc5ccccc5c4)CC3)[nH]c2c1,?,?
COc1ccccc1CN1CCCCC1C(=O)O (centres undefined),-6%,-13%
CC(C)CNC(=O)C1CCN(c2ccc(S(=O)(=O)N3CCOCC3)cc2Cl)CC1,-20%,-27%
Clc1ccc(-c2nc3ccc(Br)cn3c2Cc2ccsc2)cc1,-13%,7%
N#CCCn1cc(C(=O)Nc2ccccc2Br)c(-c2cc3ccccc3o2)n1,-13%,-5%
O=C1CCCN1CCCNCCCn1cnc2c(OCc3ccccc3)ncnc21,-12%,i
COc1ccc(NC(=O)C2=NN(C3CCS(=O)(=O)C3)C(=O)CC2)cn1 (centres undefined),-6%,i
CN(C)CC#CCC(O)(c1ccccc1)c1ccccc1,-19%,-20%
CCc1cnc2c(c1SCc1cc(OC)cc(OC)c1)c(=O)n(C)c(=O)n2C,-20%,-28%
O=C(CSc1nc2ccccc2nc1N1CCCCC1)Nc1ccc(F)cc1,4%,16%
CC[C@]1(C(=O)OC)[C@H]2C(=O)N(C)C(=O)[C@H]2[C@H]2CN=C(SCC3CC3)N21,-8%,-15%
COC(=O)c1cncc(C)c1,-6%,-5%
COc1cc(/C=N/Nc2nc(N3CCCC3)nc(N3CCCC3)n2)ccc1OCc1ccccc1F,-15%,i
CCn1cc(CNC(=S)Nc2cccc(Cl)c2C)cn1,-8%,-5%
COc1ccc(-c2c/c(=N\c3nc(-c4ccccc4)c(C)s3)c3ccccc3o2)cc1O,?,·
CCOc1cc(C(=O)N2CCN=C2SC)cc(OCC)c1OCC,-14%,-23%
COc1cccc(O)c1CN1CCCC(C(=O)c2ccccc2SC)C1 (centres undefined),4%,-2%
CC/C(=N\NC(=O)c1ccccc1O)c1c(O)n(Cc2ccccc2)c(=O)[nH]c1=O,-4%,i
SMILES,Vaccinia Venus,Vaccinia mCherry
Cn1cccc1-c1nc2ccccc2[nH]1,-2%,-14%
Cc1cccc(C(=O)NCCc2sc(-c3ccccc3)nc2C)c1,11%,18%
Cc1ccc(-c2cc(C(=O)N3CCN(c4ccccc4O)CC3)c3ccccc3n2)cc1,-21%,-3%
COc1cc(/C=C(/C#N)C(=O)Nc2cc(C(F)(F)F)ccc2Cl)ccc1OCC(=O)Nc1cccc(C(F)(F)F)c1,0%,-26%
COCCNC(=O)CN(C(=O)CCC(=O)Nc1ccccn1)c1ccc(OC)cc1,-11%,-17%
COC(=O)C1=C(C)n2nnnc2NC1c1ccc(Cl)cc1 (centres undefined),?,·
Cc1ccccc1N(C=O)c1ccccc1C,-1%,-19%
Cn1c(Cn2c(=O)sc3ccccc32)nnc1SCC(=O)NC1CCCC1,-6%,-1%
CCOC(=O)c1cccc(NC(=O)c2nn(-c3ccc(OC)cc3)c(=O)c3c2c2ccccc2n3C)c1,-4%,-11%
Cc1cc(C)c(NC(=S)NC(=O)c2ccc(-c3ccccc3)cc2)c(C)c1,-4%,-14%
CCOc1ccc(C2CC(=O)Nc3c2c(=O)nc(SCc2ccccc2C)n3C)cc1OC (centres undefined),-6%,3%
COc1cc(/C=N/NC(=O)c2ccc([N+](=O)[O-])cc2Cl)cc(Br)c1O,-11%,i
CCCCCCN1C[C@H](O)[C@@H](n2cc(C3CC3)nn2)C[C@@H]1c1ccc(OC)cc1,-20%,-13%
O=C(CSc1nc(-c2ccco2)cc(C(F)(F)F)n1)N1CCN(Cc2ccccc2)CC1,-10%,3%
O=S(=O)(NCc1ccco1)c1ccc(Cl)nc1,-12%,i
Cc1cc2cc(CCNC(=O)c3cccc([N+](=O)[O-])c3)c(=O)[nH]c2cc1C,-4%,i
N#CCCn1cc(/C=N/N=C2\NC(=O)C(CC(=O)O)S2)c(-c2ccc(F)cc2)n1 (centres undefined),2%,i
Cc1ccc2sc(N(Cc3cccnc3)C(=O)CCOc3ccccc3)nc2c1C,-6%,-7%
CCS(=O)(=O)N1CCN(c2ccc([N+](=O)[O-])c(NCc3ccccc3)c2)CC1,?,·
COc1cccc(NC(=O)CCN2C(=O)c3cccc([N+](=O)[O-])c3C2=O)c1,-16%,-14%
O=C(c1cnn(-c2ccccc2)c1)c1cc(F)ccc1O,-5%,-13%
COc1ccc(Cl)cc1CNC[C@H]1O[C@@H](n2cnc3c(=O)[nH]c(N)nc32)[C@H](O)[C@@H]1O,6%,5%
O=C(CNS(=O)(=O)c1ccc(F)cc1)N1CCCC1,-4%[7.34 µM],-11%[7.34 µM]
NC(=O)COc1c(-c2ccco2)oc2ccccc2c1=O,2%,1%
COc1ccccc1NC(=O)N(CCN1CCOCC1)Cc1cc2cc(C)cc(C)c2[nH]c1=O,-2%,-9%

# Some of these compounds in order of SMILES length, descending:
SMILES,Vaccinia Venus,Vaccinia mCherry
CCCCCCN1C[C@H](O)[C@@H](n2cc(C3CC3)nn2)C[C@@H]1c1ccc(OC)cc1,-20%,-13%
N#CCCn1cc(/C=N/N=C2\NC(=O)C(CC(=O)O)S2)c(-c2ccc(F)cc2)n1 (centres undefined),2%,i
COc1ccccc1NC(=O)N(CCN1CCOCC1)Cc1cc2cc(C)cc(C)c2[nH]c1=O,-2%,-9%
O=C(c1cnn(-c2ccccc2)c1)c1cc(F)ccc1O,-5%,-13%
Cn1cccc1-c1nc2ccccc2[nH]1,-2%,-14%

# Continuation.
SMILES,Vaccinia Venus,Vaccinia mCherry
C=Cc1ccc(CC2(C)C(=O)Nc3ccc(Cl)cc32)cc1 (centres undefined),-3%,13%
O=C(Nc1cc(S(=O)(=O)N2CCOCC2)ccc1Cl)c1cc2ccccc2o1,-18%,-21%
CC1CC2C(C(O)C[C@]3(C)C2CC[C@]3(O)C(=O)CO)[C@]2(C)C=CC(=O)C=C12 (some centres undefined),-8%,-16%
COc1ccc(-c2ccc3c(c2)S(=O)(=O)c2cccc(C(=O)N4CCN(C5CCCCC5)CC4)c2C3=O)cc1OC,-12%,i
CN(C)C=NC(=O)c1cc(C(=O)c2ccc(Cl)cc2Cl)c[nH]1,-19%,-4%
Cc1cc(=O)oc2cc(OCC(=O)NCCCN3CCOCC3)ccc12,-20%,·
CN(Cc1ccccc1C#N)S(=O)(=O)c1cccs1,-11%,-30%
COc1ccc(S(=O)(=O)N2CCC(C(=O)Nc3cccc(C(C)=O)c3)CC2)cc1,?,·
Cc1ccccc1C(OCCN(C(C)C)C(C)C)c1ccccc1 (centres undefined),-24%,-28%
O=C(CC1SC(=NCC2CCCO2)NC1=O)Nc1cc([N+](=O)[O-])ccc1Cl (centres undefined),-1%,0%
CC(C)[C@H](NC(=O)C1CCN(S(=O)(=O)c2ccc(F)cc2)CC1)C(=O)N1CCCC1,-20%,-4%
CCn1ncc(N(C)N)c(Cl)c1=O,-6%,i
CC(=O)N1CCc2cc(S(=O)(=O)CCC(=O)NCc3cccs3)ccc21,-10%,-3%
COc1ccc(C(=O)N(Cc2sccc2C)C2CCS(=O)(=O)C2)cc1 (centres undefined),-10%&-11%,-14%&-3%
Cc1cccc(NC(=O)CCNC(=O)c2ccccc2)c1,-14%,-13%
Cc1ccc(C(=O)Oc2ccc(-c3nccc(-c4ccccn4)n3)cc2)cc1,-3%,·
CC(C)(C)NC(=O)c1nn(Cc2ccccc2)c(=O)c2ccccc12,-11%,i
COc1ccccc1CNC(=O)[C@@H](NC(=O)C1CCN(C(=O)[C@@H]2CCCN2)CC1)C(C)C,-4%,0%
CCN(C(=O)CSc1nnc(C)n1-c1ccc(C)cc1)c1c(N)n(Cc2ccccc2)c(=O)[nH]c1=O,-4%,-9%
CCOC(=O)C1CCCN(CC(=O)Nc2cc(C)c3c(=O)oc4ccccc4c3n2)C1 (centres undefined),-3%,5%
C[C@@H]1CN([C@H](C)CO)C(=O)Cc2cc(NC(=O)CCC(F)(F)F)ccc2O[C@@H]1CN(C)S(=O)(=O)c1ccccc1,6%,2%
N=C1C(c2ccccc2)=C(O)CN1c1ccc2c(c1)OCO2,-17%,-5%
Cc1ccc(CNc2nc(CN3CCN(C=O)CC3)nc3ccccc23)o1,1%,-3%
CCCc1cc(=O)c2c(O)ccc(OC)c2o1,-4%,i
COc1ccc(-c2noc(CN(C)C(=O)c3ccc4c(c3)OCO4)n2)cc1,-9%,-12%
SMILES,Vaccinia Venus,Vaccinia mCherry
CCOC(=O)c1c(C)[nH]c(C)c1S(=O)(=O)N1CCCC(C(=O)N2CCN(c3ccccc3F)CC2)C1 (centres undefined),-7%,-11%
CCCCOCP(=O)(CCCC)COCCCC,8%,·
O=C(CN1C(=O)c2ccccc2S1(=O)=O)NCCSC1CCCCC1,-13%,·
COc1ccc(C(=O)ON=C2C=C(C)C(=O)C(C)=C2)cc1,12%,-1%
COc1ccc(NC(=O)CC(c2ccc(F)cc2)c2ccc(OC(C)C)cc2)cc1 (centres undefined),-20%,-5%
O=c1cc(-c2ccc(O)cc2)oc2cc(O)c([C@@H]3O[C@H](CO)[C@@H](O)[C@H](O)[C@H]3O)c(O)c12,-7%,40%[activator]
Cc1nccn1-c1ccc(NC(=O)[C@H]2O[C@@H](n3ccc(N)nc3=O)[C@H](O)[C@@H]2O)cc1,0%,7%
COCc1cc(=O)[nH]c(/N=C(\N)Nc2ccc(Cl)c(Cl)c2)n1,4%[7.34 µM],i[7.34 µM]
CC1=C(/C=C/c2ccccc2)CCN(C)C1,-26%,-19%
Cc1cc(N/C=C(\C#N)S(=O)(=O)c2ccccc2Cl)nc(C)n1,-7%,i
CS(=O)(=O)Nc1cccc(C2=NN(C(=O)c3ccco3)C(c3ccco3)C2)c1 (centres undefined),?,?
CCOC(=O)[C@@H](NC(=O)/C=C/[C@H]1O[C@@H](n2ccc(=O)[nH]c2=O)[C@H](O)[C@@H]1O)C(C)C,8%,2%
O=C(Nc1cccc(Cl)c1)C1CCCCC1,-12%,-4%
Cc1c2cnn(-c3ccccc3)c(=O)c2c(C)n1CCCC(=O)Nc1cc(F)ccc1F,-9%,-12%
S=C(Nc1ccccc1Cl)N1CCCC(c2ccccc2)=N1,-12%,?
N#Cc1cnc(Nc2ccc(F)cc2)nc1N,-30%,?
COc1ccc(S(=O)(=O)N2CCN(Cc3cc(OC)c(OC)c(OC)c3)CC2)cc1,-10%,-13%
COC(=O)C(C)Oc1ccc(Cl)c(CN2OCC(C)(C)C2=O)c1 (centres undefined),12%,2%
O=C(CN1CCN(c2ccccc2O)CC1)Nc1ccc2c(c1)CCC2,-15%,-22%
CCc1ccc(S(=O)(=O)c2nnn3c2nc(Nc2cccc(C)c2C)c2sccc23)cc1,?,-30%
O=C(CSc1c[nH]c2ccccc12)NCC1CCCO1 (centres undefined),-1%,?
CCc1ccc(NC(=O)c2ccc(F)c(S(=O)(=O)N(CC)c3ccccc3)c2)cc1,-7%,i
CCOC(=O)c1cccc(Nc2nc(C(=O)OCC)nc3ccccc23)c1,-8%,1%
CCCC(=O)N1CCCC1(C)C(=O)Nc1ccc(C)c(C)c1 (centres undefined),5%,11%
CN(CC(=O)Nc1ccccc1C(F)(F)F)C(=O)C1=COCCO1,-13%,i
SMILES,Vaccinia Venus,Vaccinia mCherry
CC(C)(C(=O)Nc1nccs1)c1ccccc1,-1%,6%
Cc1nn(C)c(C)c1CCC(=O)N1CCCC(C(=O)c2cccc(OC(C)C)c2)C1 (centres undefined),0%[7.34 µM],-15%[7.34 µM]
Cc1nc(COC(=O)c2ccc(CO)cc2)cs1,?,i
CCOC(=O)c1cnn(-c2nc(OC)cc(OC)n2)c1C(F)(F)F,-11%,-14%
O=c1[nH]c2c(cnn2-c2ccc(Cl)cc2)c(=O)n1-c1cccc(Cl)c1,-10%,i
NC(=O)c1ccc(Nc2nc(C(N)c3ccccc3Cl)cs2)cc1 (centres undefined),-25%,?
O=C(CCCc1ccccc1)NCCC1=CCCCC1,8%,-1%
CC(C)n1c(SCC(=O)N2CCN(C)CC2)nc2c1c(=O)n(C)c(=O)n2C,1%,-3%
CCC(C)NC(=O)c1ccc2nc(Cc3ccc(OC)cc3)oc2c1 (centres undefined),-21%,-8%[7.34 µM]
COc1ccc(Cl)cc1NC(=O)CSc1nc(-c2ccccc2)c2ccccc2n1,-6%,-3%
CCOCc1nnc(NC(=O)CS(=O)(=O)c2ccc(C)cc2)s1,3%,i
CCc1ccc(C2CC(=O)Oc3c2c(=O)n(C)c2ccccc32)cc1 (centres undefined),-24%,-22%
